HNF4A DNA FP – change in binding of human HNF4 alpha to DNA | HNF4a-FITC DNA binding, fluorescence polarization, 1 h | P41235 | 360,000 tested, 0.3% active | AID 1224865 | activity change, % at 10 µM; in the data active means activity change above about 30%, passing the limit was not always enough;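 further: controls were the assay level and a saturating level of protein; the project sought stronger binding though the title names inhibitors; some compounds called inactive have numbers as strong as hits; positive values seem to mean higher polarization but the record does not say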
Target sequence (P41235 whole entry, looked up): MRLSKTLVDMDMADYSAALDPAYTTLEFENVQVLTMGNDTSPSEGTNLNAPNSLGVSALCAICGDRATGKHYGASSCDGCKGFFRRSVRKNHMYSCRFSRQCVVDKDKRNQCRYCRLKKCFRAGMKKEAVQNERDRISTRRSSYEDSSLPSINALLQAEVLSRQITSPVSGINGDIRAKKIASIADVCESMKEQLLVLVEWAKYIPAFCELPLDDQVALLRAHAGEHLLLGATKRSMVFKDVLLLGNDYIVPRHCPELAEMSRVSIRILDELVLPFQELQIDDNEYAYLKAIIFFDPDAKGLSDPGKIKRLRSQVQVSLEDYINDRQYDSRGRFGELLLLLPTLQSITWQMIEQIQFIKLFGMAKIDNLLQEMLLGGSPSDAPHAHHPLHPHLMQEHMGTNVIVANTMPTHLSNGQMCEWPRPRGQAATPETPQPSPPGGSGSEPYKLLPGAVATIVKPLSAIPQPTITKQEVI
E coli growth – blocks Escherichia coli growth | OD600 absorbance (test concentration not listed) | 330,000 tested, 0.21% active | OD600, 23 h; hits give low values;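 active means OD600 absorbance below the run mean of sample wells minus 3.6 SD, in any replicate, cut at about 0.56 in these data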;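 further: stock transfer was 300 nL into about 60 µL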
MLL AF4-AF9 inh – inhibitors of human MLL-AF4/AF9 interaction; AlphaScreen, biotin-AF4 peptide binding to FLAG-AF9; AID 651704; P42568; inhibition, % at 10 µM; 350,000 tested, 0.47% active;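 active means every replicate reaching a set inhibition limit, whatever the replicate mean, cut at about 25% in these data; inconclusive means mean inhibition reaches that limit but some replicates miss it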;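 further: 0% = plate neutral control median and 100% = total signal loss; the record names both 10 and 1 µM as test concentration; the first replicate is given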
RanGTP-Imp inh – inhibitors of RanGTP-importin-beta interaction, primary screen, biochemical, FRET, CFP-Ran, YFP-importin-beta, homogeneous; cell-free CFP-Ran/YFP-importin-beta FRET ratio; inhibition, % (concentration not given with the values); 300,000 tested, 1.1% active;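 active means most replicates above 15%; inconclusive means exactly half above 15%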;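 further: 0% = DMSO wells and 100% = Ran loaded with GDP instead of GTP; wells of about 40 µL received 100 nL stock; the first replicate is given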
FGF22 binding – binders of recombinant human FGF22 by thermal shift | 340,000 tested, 1.5% active | SYPRO orange fluorescence; percent of sucrose octasulfate shift, DMSO zero | calls only at 9.99 µM | Q9HCT0;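 active means melting point raised past a set limit in the mean and every replicate; inconclusive means no clear call; three in four hits are not shown here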
Target sequence (Q9HCT0 whole entry, looked up): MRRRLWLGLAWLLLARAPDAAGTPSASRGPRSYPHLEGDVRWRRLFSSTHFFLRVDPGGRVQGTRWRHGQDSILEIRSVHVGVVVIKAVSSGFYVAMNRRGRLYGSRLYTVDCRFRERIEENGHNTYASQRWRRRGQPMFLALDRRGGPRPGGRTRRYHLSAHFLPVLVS
UCH37 inh – human UCH37 deubiquitinating enzyme inhibition; purified proteasome/UCH37, Ub-AMC cleavage fluorescence; inhibition, % (test concentration not listed); 330,000 tested, 0.33% active;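 active means mean of two replicates above 20%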;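 further: 0% = compound-free wells with enzyme and 100% = wells lacking proteasome; stock transfer was 100 nL into about 20 µL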
Target sequence (Q9Y5K5 whole entry, looked up): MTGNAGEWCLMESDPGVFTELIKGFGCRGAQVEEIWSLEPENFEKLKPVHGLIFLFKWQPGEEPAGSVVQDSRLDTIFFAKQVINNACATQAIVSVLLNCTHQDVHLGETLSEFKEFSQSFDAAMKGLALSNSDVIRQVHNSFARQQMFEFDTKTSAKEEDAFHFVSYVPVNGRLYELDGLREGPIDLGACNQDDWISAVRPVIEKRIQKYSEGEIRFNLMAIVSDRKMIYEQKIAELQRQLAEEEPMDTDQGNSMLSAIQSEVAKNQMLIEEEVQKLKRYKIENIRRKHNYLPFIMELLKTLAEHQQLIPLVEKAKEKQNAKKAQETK
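Material: Human UCH37 enzyme supplied as purified proteasome complex | Schedule: 30 min compound-proteasome preincubation then 25 min substrate reaction, room temperature | Detection: AMC fluorescence from Ub-AMC cleavage, excitation 355 nm, emission 460 nm | Benchmarks: Wells without proteasome as full block, compound-free enzyme plus substrate as uninhibited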
Vif A3G – HIV-1 Vif–A3G interaction blockers – biochemical, TR-FRET, GST-Vif 1-94, biotin-A3G peptide, dose response retest, primary screen (AID 1117319); 260,000 tested, 0.57% active; TR-FRET GST-Vif / biotin-A3G peptide binding; higher % means a stronger effect; test concentration not given here; strong numbers were not always called active; inhibition, %, or IC50 in µM where a hit was titrated;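 active means above the screen mean plus three standard deviations and confirmed in dose response; inconclusive means results disagree or hit not tested in dose response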;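 further: Vif residues 1-94 fused to GST binding biotinylated APOBEC3G peptide 110-148; 0% = full assay without inhibitor and 100% = GST in place of GST-Vif; retest series ran down from 100 µM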
The depositor's hits bear a star; i = inactive; ? = inconclusive; / = no result given; & = joins results of further samples.

SMILES	HNF4A DNA FP	E coli growth	MLL AF4-AF9 inh	RanGTP-Imp inh	FGF22 binding	UCH37 inh	Vif A3G
O=C(CCN1C(=O)[C@@H]2Cc3ccccc3CN2C1=O)N[C@@H](C(=O)O)c1ccccc1	-1.8	0.7	-2.0	3.5	i	1.4	/
CCOc1cc(S(=O)(=O)NC2CCCCC2)ccc1F	3.0	0.69	/	-11	/	1.3	5%
CC1CCCC(C)N1/N=C/c1cc(Br)cc(Br)c1O (stereo unspecified)	-3.3	/	/	-7.0	/	/	-9%
CCc1nnc(NS(=O)(=O)c2ccc(NC(=S)NC(=O)c3ccc(OC)cc3)cc2)s1	0.7	0.64	/	?	/	4.4	/
CC(=O)c1c(O)cc(C)n(Cc2ccccc2)c1=O	0.9	0.69	/	1.9	/	2.9	6%
CCCn1cc(NC(=O)C2CC(c3cccc(Br)c3)=NO2)cn1 (stereo unspecified)	5.2	0.71	/	-1.5	/	0.0	1%
N/C(=N\OC(=O)COc1ccc2ccccc2c1)c1ccncc1	-2.6	0.61	/	-0.8	/	2.1	1%
C=CCOc1ccc(/C(O)=C2/C(=O)C(=O)N(CCCn3ccnc3)C2c2cccs2)cc1 (stereo unspecified)	1.1	/	/	-2.6	/	5.4	6%
CCOC(=O)c1ccc(S(=O)(=O)NC2CC2)cc1	-0.9	0.7	-9.9	-1.4	i	2.1	/
COc1ccc(C=C2CCc3ccccc3C2=O)cc1	2.6	/	-4.3	/	i	/	/
O=C1C=C(N2CCCCC2)c2ccccc2C1=O	-1.9	0.62	4.3	-0.4	/	90*	/
O=C(Cn1c(=O)n(-c2ccccc2)c(=O)c2sccc21)N1CCCC1	-1.6	0.69	/	-2.6	/	2.3	21%
CC1C/C(=C\c2cccnc2)C(=O)/C(=C/c2cccnc2)C1 (stereo unspecified)	1.1	0.67	/	/	/	7.7	/
O=C(CNC(=O)c1cccs1)OCC(=O)c1ccccc1Cl	-2.0	0.73	-0.3	/	i	7.1	0%
Cc1cc(S(=O)(=O)NC[C@H]2O[C@@H](n3cnc4c(N)ncnc43)[C@H](O)[C@@H]2O)c(C)s1	1.9	0.69	-1.5	/	i	0.6	-1%
COc1ccccc1COCC(O)CNCCc1ccc(C(F)(F)F)cc1 (stereo unspecified)	-4.8	0.65	?	8.1	i	3.3	-11%
COC(=O)C1=C(NC(=O)COc2ccc(Cl)cc2Cl)CCS1	1.8	0.75	0.7	4.4	i	-32	/
COc1cccc2sc3cc(NCCCN4CCOCC4)ccc3c(=O)c12	6.9	0.63	/	/	i	-123	/
Cc1ccc(NC(=O)c2ccccc2)cc1C	-0.8	0.64	3.6	/	i	0.5	/
CCOC(=O)c1c(CS(=O)(=O)c2ccccc2)n(C)c2cc(Br)c(O)c(CN(C)C)c12	2.7	0.66	5.9	0.3	i	3.9	/
Cc1ccc(C)c(S(=O)(=O)NCC(=O)Nc2ccc3c(c2)OCO3)c1	3.8	0.68	-0.5	0.7	i	0.0	/
CCOc1cccc(N2C(=O)CC(NCc3ccc(S(N)(=O)=O)cc3)C2=O)c1 (stereo unspecified)	0.3	0.73	/	5.7	/	0.3	-2%
COc1ccc(C(=O)Nc2cc(Cl)ccc2-n2cncn2)c(OC)c1OC	-3.8	0.69	-1.7	/	i	2.1	-6%
Cc1nn(C(C)C(=O)O)c(=O)c2ccccc12 (stereo unspecified)	2.1	0.65	0.0	-2.0	i	3.0	/
Cc1nnc2ccc(-c3ccc(NC(=O)Cc4cccs4)cc3)nn12	-12	0.68	8.0	-2.5	i	-5.8	14%

Compound profiles, from the list above:
`C=CCOc1ccc(/C(O)=C2/C(=O)C(=O)N(CCCn3ccnc3)C2c2cccs2)cc1` (stereo unspecified) as listed: HNF4A DNA FP = 1.1; E coli growth = /; MLL AF4-AF9 inh = /; RanGTP-Imp inh = -2.6; FGF22 binding = /; UCH37 inh = 5.4; Vif A3G = 6%
`COc1ccc(C(=O)Nc2cc(Cl)ccc2-n2cncn2)c(OC)c1OC` as listed: HNF4A DNA FP = -3.8; E coli growth = 0.69; MLL AF4-AF9 inh = -1.7; RanGTP-Imp inh = /; FGF22 binding = i; UCH37 inh = 2.1; Vif A3G = -6%

New compounds follow
SMILES	HNF4A DNA FP	E coli growth	MLL AF4-AF9 inh	RanGTP-Imp inh	FGF22 binding	UCH37 inh	Vif A3G
Cc1oc(-c2ccc3c(c2)OCCO3)cc1C(=O)NC(Cc1ccccc1)C(=O)O (stereo unspecified)	-4.7	0.68	2.1	-1.3	i	3.0	11%
Cc1csc(=O)n1CC(=O)OCC(=O)N(CC(C)C)c1c(N)n(Cc2ccccc2)c(=O)[nH]c1=O	4.3	0.69	-5.6	-6.2	i	0.7	6%
COc1ccc(CN(CC(=O)NCc2ccc(F)cc2)C(=O)CCC(=O)Nc2ccccn2)cc1	1.2	0.68	1.2	2.3	/	1.8	10%
CN(c1ccccc1)c1nc(N)c([N+](=O)[O-])c(NC2CCCCC2)n1	-4.8	0.7	-0.5	2.7	i	1.0	-2%
COc1cc2cc(CCOC(=O)N3CCCCC3)oc(=O)c2cc1OC	2.4	0.71	0.7	/	i	-1.8	/
CN(C)CC(O)CN(c1ccccc1)c1ccccc1 (stereo unspecified)	0.4	0.65	0.9	9.0	i	1.9	-2%
O=C(Nc1ccc(N2CCCC2)cc1)c1ccccc1F	6.9	0.67	/	-1.9	/	5.5	14%
COc1ccc(OC)c(S(=O)(=O)Nc2cccnc2)c1	-1.5	0.68	/	0.3	/	0.9	5%
CNc1cc(-c2cc(OC)ccc2OC)ncn1	-2.0	/	9.1	/	i	/	/
O=C(NCCc1ccccc1)c1c(O)c2ccccc2[nH]c1=O	0.9	0.75	-1.7	?	i	-2.7	-5%
COc1ccc(NS(=O)(=O)c2ccc(C)c(C(=O)N(C)Cc3ccc(OC)cc3OC)c2)cc1	-1.2	0.68	-1.1	-0.1	i	5.6	4%
CC1=C(C(=O)Nc2ccccc2)C(c2ccco2)C(C#N)=C(SCC(=O)Nc2cccc(C)c2C)N1 (stereo unspecified)	-1.9	0.71	/	0.0	/	-20	6%&-9%
CCOC(=O)N1CCC(N(CCN(C)C)C(=S)Nc2cccc(C)c2)CC1	3.5	0.71	-9.8	5.5	i	5.8	5%
COc1cc(NC(=O)C2CC(c3ccccc3Cl)=NO2)cc(OC)c1OC (stereo unspecified)	-4.8	0.71	3.5	-1.1	i	1.9	/
O=C1COc2ccc(C(=O)CSc3ccccc3C(=O)O)cc2N1	-2.3	0.71	8.1	7.9	i	3.6	16%
O=C(COC(=O)c1ccc[nH]c1=O)NC1CCCC1	-1.7	0.72	/	-1.9	/	1.4	0%
CC1CC1C(=O)OCC(=O)NC(=O)NC12CC3CC(CC(C3)C1)C2 (stereo unspecified)	-2.2	0.69	3.7	-2.1	i	6.4	8%
O=C(N/N=C/C=C/c1ccccc1[N+](=O)[O-])c1cc(-c2cccnc2)nc2ccccc12	-2.2	/	2.9	-2.3	i	/	14%
CCCC(=O)NCCCc1nc2ccccc2n1C	-0.1	0.69	-4.4	0.8	i	1.8	1%
COc1ccc(S(=O)(=O)N2CCCC(C(=O)NCCc3ccccc3)C2)cc1 (stereo unspecified)	2.7	0.7	2.6	4.3	i	1.3	/
CCOC(=O)c1c(CN(C)C)n(-c2ccc(C)cc2)c2cc(Br)c(O)cc12	3.9	0.64	/	-1.1	/	4.2	-1%
Cc1ccc(S(=O)(=O)N2CCC(=O)N(CCOC(=O)Nc3ccc(F)cc3)CC2)cc1	-5.4	0.67	-1.8	3.0	i	6.4	/
Cc1ccc(C(C)NC(=O)CSc2ccc(S(=O)(=O)N3CCOCC3)cn2)cc1C (stereo unspecified)	-0.4	0.66	-1.8	/	i	1.2	3%
CCCOC(=O)C(C)n1cnc2scc(-c3ccc(C)cc3)c2c1=O (stereo unspecified)	0.7	0.72	-3.1	1.4	i	4.0	-9%
CN(C)CCNC(=O)c1cc2sc3ccccc3c2s1	0.5	0.65	1.8	5.4	i	-7.4	-3%

Printed as active in UCH37 inh, among the entries above:
SMILES	HNF4A DNA FP	E coli growth	MLL AF4-AF9 inh	RanGTP-Imp inh	FGF22 binding	UCH37 inh	Vif A3G
O=C1C=C(N2CCCCC2)c2ccccc2C1=O	-1.9	0.62	4.3	-0.4	/	90*	/

Next section.
SMILES	HNF4A DNA FP	E coli growth	MLL AF4-AF9 inh	RanGTP-Imp inh	FGF22 binding	UCH37 inh	Vif A3G
CCNC(=O)C1(C)CCN(C(=O)C(c2ccccc2)c2ccccc2)C1 (stereo unspecified)	-1.5	/	0.1	/	i	/	/
O=C(/C=C/Nc1ccc([N+](=O)[O-])cc1Br)c1cccc2ccccc12	7.2	0.73	/	-24	/	-0.8	/
Cc1ccc(CNC(=O)C(=O)c2cn(CC(=O)N3CCOCC3)c3ccccc23)cc1	-3.1	0.71	-4.4	?	i	7.5	/
O=C(Cc1ccccc1)Nc1ccc(NC(=S)NC(=O)c2ccccc2)cc1	-0.3	0.67	-2.9	/	i	0.3	/
CCOC(=O)c1ccoc1CN1CCN(S(=O)(=O)c2ccc(C)c(C)c2)CC1	-1.6	0.7	-2.9	/	i	5.7	3%
Cc1cccc2c(N)c3c(nc12)N(C)CC3	-0.2	/	0.5	1.7	i	/	-3%
COc1cc(C(C[N+](=O)[O-])c2c(C)[nH]c3ccccc23)ccc1O (stereo unspecified)	1.1	0.64	9.7	2.7	i	2.3	/
COc1ccc(-c2cc(C(=O)NCC(C)C)no2)cc1	1.2	0.73	/	2.9	/	4.1	-1%
Cc1cc(Cl)ccc1C(=O)C1CCCN(C(=O)c2cnsn2)C1 (stereo unspecified)	3.1	0.65	-1.2	2.1	i	1.5	-2%
O=C1C(C23CC4CC(CC(C4)C2)C3)C(=O)N(c2ccccc2)N1c1ccccc1	-1.8	0.7	-2.8	-1.0	i	-1.0	-2%
Cc1c(-c2nc(-c3ccncc3)no2)cccc1[N+](=O)[O-]	1.7	0.63	-2.2	-3.7	i	3.6	-9%
CCc1ccccc1NC(=O)CN1CCN(CC(=O)Nc2ccc3c(c2)OC2(CCCCC2)O3)CC1	-0.5	0.64	4.4	/	i	1.0	/
CCc1c(C)nc(N)n2c(SCC(=O)NC3CCCCC3)nnc12	-0.3	0.66	1.9	0.5	i	5.9	/
COC(=O)c1cccc(NC(=O)c2cc(OC)c(OC)c(OC)c2Br)c1	-0.2	0.67	2.1	0.0	i	-0.3	3%
COc1ccc(CCN(C)C(=S)NC(=O)c2ccc(F)cc2Cl)cc1OC	0.0	0.74	-3.3	-2.6	i	0.6	/
CCCN1CCC(=O)N([C@H](CSc2ccc(C)cc2)CC(C)C)CC1	-1.3	/	/	-0.4	/	1.0	/
CCN(CC)S(=O)(=O)c1ccc(C(=O)Nc2ncn(Cc3ccccc3)n2)cc1	1.8	0.62	/	-2.2	/	1.6	0%
COc1cc2sc(NC(=O)c3ccco3)nc2cc1Cl	-1.1	0.69	-1.1	0.6	i	-46	-3%
CSc1nc(S(=O)(=O)c2ccc(C)cc2)c(Cl)s1	-2.2	/	0.9	-3.4	i	/	-4%
CN(C)/C=N/n1cnc2ccccc2c1=O	3.5	/	-2.0	-1.2	i	/	13%
O=C(CSc1ncn[nH]1)Nc1cccc2ccccc12	3.7	0.72	/	3.6	/	-0.3	17%
CCCN1CCN(C(=O)c2ccccc2-c2nc3ccccc3s2)CC1	-3.0	0.69	-3.2	?	/	3.2	-4%
Cc1ccccc1C(=O)NCC(=O)Nc1ccc(C)c(S(=O)(=O)N2CCCCCC2)c1	0.8	0.71	1.4	0.6	i	-0.6	/
O=c1[nH]c2ccccc2nc1Cc1ccc(Cl)cc1	-4.2	0.69	2.0	0.9	i	-5.6	/
O=C(Oc1ccc(C(=S)N2CCOCC2)cc1)c1ccc([N+](=O)[O-])cc1[N+](=O)[O-]	0.2	0.69	-3.1	-1.0	i	3.9	/

Screening data as filed in PubChem.

A portion of the library; the hit share may differ from the screen's.
